# High-throughput results deposited in PubChem BioAssay by several laboratories.
# MT1-MMP act inh: MT1-MMP (human) activation inhibition; 0.061% of 360,000 active; GFP/RFP ratio change, % at 20 µM; HT1080 RFP-PRO-GFP cells, GFP/RFP ratio fluorescence, overnight; percent of plate control window, DMSO zero; P50281;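 active means GFP/RFP ratio change of at least 30% with cell ATP level not reduced by more than half and red fluorescence within 50% of control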; further: strong numbers were not always called active
#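 Assay system: RFP-PRO-GFP reporter HT1080 cells; read-out basis: GFP/RFP fluorescence ratio; benchmarks: DMSO wells and RFP-L50D-GFP cells; doses: 20 µM single dose, 1% DMSO; schedule: overnight cell settling, then overnight compound exposure, 37 °C, 5% CO2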
# PABP polyA inh: PABP-poly(A) binding inhibition; inhibition, % at 35 µM; 1% of 290,000 active; P11940; PABP-poly(A) RNA binding, fluorescence polarization; AID 2014;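 active means 50% or more with normal probe brightness, or confirmed in later tests; inconclusive means above 50% with abnormal brightness, or retests that disagree; inactive means below 50% or failed in later tests; about a fifth of its hits are not listed in these tables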;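 further: calls also rest on retests at 20 µM and on dose response follow-up; controls were probe without protein and protein plus probe with vehicle; some compounds called inactive have numbers as strong as hits; many hits fall short of the cut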
# Target sequence (P11940 whole entry, looked up): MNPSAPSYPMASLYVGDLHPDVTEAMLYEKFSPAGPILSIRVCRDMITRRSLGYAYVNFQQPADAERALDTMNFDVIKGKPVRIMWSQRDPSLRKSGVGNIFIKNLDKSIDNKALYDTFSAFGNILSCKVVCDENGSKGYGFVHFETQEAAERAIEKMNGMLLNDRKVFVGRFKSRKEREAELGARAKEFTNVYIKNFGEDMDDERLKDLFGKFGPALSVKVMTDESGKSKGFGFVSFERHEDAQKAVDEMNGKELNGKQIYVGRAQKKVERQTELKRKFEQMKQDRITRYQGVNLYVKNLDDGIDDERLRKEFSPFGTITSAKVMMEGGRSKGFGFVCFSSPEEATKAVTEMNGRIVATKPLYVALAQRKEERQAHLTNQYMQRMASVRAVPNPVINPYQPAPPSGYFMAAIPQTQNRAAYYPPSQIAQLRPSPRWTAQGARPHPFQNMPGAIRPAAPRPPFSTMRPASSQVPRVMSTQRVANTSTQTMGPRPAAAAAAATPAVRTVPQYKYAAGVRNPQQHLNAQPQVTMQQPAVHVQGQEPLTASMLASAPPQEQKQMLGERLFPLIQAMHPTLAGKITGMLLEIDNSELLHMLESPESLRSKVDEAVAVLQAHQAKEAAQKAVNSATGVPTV
# CSC inhib: cancer stem cell inhibition; cancer stem cell-like cells viability, luminescence; inhibition, % at 7.5 µM; 1.1% of 300,000 active; AID 2717;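 active means mean at 75% or more and at least half the replicates too; inconclusive means mean and replicates disagree; tested in HMLE shEcad cells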;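 further: 0% = median of negative and 100% = median of positive control wells; the first replicate is given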
# eIF4H inh: inhibitors of RNA binding by human eIF4H | 0.94% of 290,000 active | AID 2012 | inhibition, % at 35 µM | eIF4H fluorescence polarization binding assay | Q15056;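 active means 50% or more with normal probe brightness, or confirmed in later tests; inconclusive means above 50% with abnormal brightness, or retests that disagree; inactive means below 50% or failed in later tests; about a fifth of its hits are not listed in these tables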;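 further: calls also rest on retests at 20 µM and on dose response follow-up; 0% = protein and probe with vehicle and 100% = probe without protein; strong numbers were not always called active; many hits fall short of the cut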
# HIV Env fusion: blocks HIV Env-driven cell-cell fusion; HeLa-JRFL Env/CEM21 cell fusion, luciferase; inhibition, % at 12.3 µM; 1.1% of 360,000 active; AID 651610;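 active means mean replicate inhibition score of at least 50 and every replicate individually at or above 50; inconclusive means only one of the two criteria met; inactive means mean below 50 and not all replicates reaching 50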;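 further: 0% = plate neutral controls and 100% = maraviroc near 300 nM; one replicate is shown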
# Yeast UUG start: yeast start codon fidelity modulation. activity score, % at 18.7 µM. S. cerevisiae UUG-firefly luciferase reporter, luminescence/redox ratio. 0.13% of 350,000 active. AID 602363;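 active means replicate mean at a twofold rise or more, about +100% in these data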;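 further: firefly luciferase made from a UUG start codon reports start codon fidelity; reporter light over untreated wells divided by growth signal over untreated wells; some hits fall short of that in this replicate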
# Rce1 inh: yeast Ras-converting enzyme inhibition. Q03530. yeast membranes, quenched prenylated peptide cleavage fluorescence. calls only. 0.27% of 290,000 active. AID 2563;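 active means fall in fluorescence gain of 50% or more versus controls, with final raw signal at or below 3038400; inconclusive means same 50% fall but final raw signal above 3038400; inactive means fall in fluorescence gain under 50%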;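 further: plate controls were neutral control wells for no effect and wells lacking membranes for full effect; tested at 10 µM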
# Target sequence (Q03530 whole entry, looked up): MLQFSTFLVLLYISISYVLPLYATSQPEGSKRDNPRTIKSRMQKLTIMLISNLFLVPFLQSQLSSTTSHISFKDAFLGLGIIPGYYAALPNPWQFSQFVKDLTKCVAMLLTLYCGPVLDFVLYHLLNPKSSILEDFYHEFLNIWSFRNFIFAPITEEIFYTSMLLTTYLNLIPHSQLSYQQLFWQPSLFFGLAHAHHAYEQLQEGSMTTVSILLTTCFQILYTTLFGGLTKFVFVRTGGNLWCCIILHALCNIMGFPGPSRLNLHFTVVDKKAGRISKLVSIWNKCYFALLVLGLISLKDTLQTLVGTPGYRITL
# eIF4H inh retest: recorded beside eIF4H inh, whose call it bears; inhibition, %; compound at 20 µM; confirmation average;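 mean of two retest wells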
# PABP polyA inh retest: recorded beside PABP polyA inh, whose call it bears; inhibition, %; compound at 20 µM; confirmation repeats;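 mean of two retest wells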
# MT1-MMP act inh RFP: further read-out of MT1-MMP act inh, marked with its call; RFP signal change, %; measured here: RFP expression control read;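 0 = vehicle wells; hits needed this value within 50% of zero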
# * = called active by the depositor; i = inactive; ? = inconclusive; · = no result given; + = active, no number; [ ] = dose if it differs, or a comment. Compounds as they come; any-hit rate near 2.9%.
SMILES,MT1-MMP act inh,MT1-MMP act inh RFP,PABP polyA inh,CSC inhib,eIF4H inh,HIV Env fusion,Yeast UUG start,Rce1 inh,others
CCCCOC(=O)C1=C(C)Nc2ncnn2C1c1cccc(OC)c1 (stereo not given),-2,-3,1,0,-4,-220,-11,i,
O=C(Nc1ccc(-n2cnnn2)cc1)C1CCC1,-5,-5,-7,-5,-6,-63,-21,i,
O=C(O)CCc1nc(-c2ccccc2)no1,0,-1,2,-10,-5,-59,-17,i,
NC1=NC(=O)/C(=C/c2ccc(Br)cc2)S1,1,0,2,-6,-2,-45,-24,i,
CC(C)CC(=O)Nc1nnc(S(=O)(=O)N(C)c2ccc(Cl)cc2)s1,-1,-4,-2,-3,-4,-2,-8,i,
CNC(=O)c1cc(NC(=O)CCn2nc(-c3ccc(C)cc3)c3ccccc3c2=O)ccc1OC,4,0,-1,-5,1,62*,5,i,
O=C(c1cc(S(=O)(=O)N2CCCCC2)ccc1F)N1CCCCC1,-5,-1,-2,0,1,·,-13,i,
COc1ccc(CN(C(=O)c2oc3ccccc3c2C)C2CCS(=O)(=O)C2)cc1OC (stereo not given),-2,2,-12,-17,4,·,-6,·,
Cc1nc2ccccc2n1Cc1ccccc1,1,-21,5,18,-1,-2,-13,i,
Cc1cc(C)n2nc(S(=O)(=O)NC3CCCCC3)nc2n1,-3,1,-6,0,-3,13,4,i,
Cc1ccc(N(Cc2ccccc2F)S(C)(=O)=O)c(C)c1,-10,-3,10,-18,-6,13,·,i,
O=C1CSC(c2cn(-c3ccccc3)nc2-c2cc3ccccc3oc2=O)N1Cc1ccco1 (stereo not given),-10,-5,-14,-8,-5,-63,-1,+,
CN(C)CCN(C(=O)c1ccc2c(c1)OCCO2)c1nc2c(Cl)cccc2s1,3,4,0,-5,5,-3,-10,i,
CCc1ccc(/C=C2\SC(=S)N(CCC(=O)Nc3cc(C)on3)C2=O)cc1,-25,-3,5,-7,51,51,·,i,eIF4H inh retest=-13;PABP polyA inh retest=-2
O=C(NN/C(=N/S(=O)(=O)c1ccc(Cl)cc1)c1ccccc1)c1ccc(O)cc1,-4,7,?,7,-5,-208,·,i,
Cc1ccc(/C=c2\s/c(=C(/C#N)C(=O)N3CCCC3)n(Cc3ccco3)c2=O)s1,-3,14,31,2,30,-52,9,i,
S=C(NCCc1ccccc1)Nc1nccs1,1,2,·,-9,·,-37,-25,i,
COc1ccc(S(=O)(=O)N(C)C[C@H]2Oc3c(cccc3N(C)C)C(=O)N([C@H](C)CO)C[C@@H]2C)cc1,-4,2,·,-14,·,0[16.7 µM],-10,·,
O=C(NC(=S)Nc1ccc(Br)cc1F)C1CCCCC1,5,5,·,·,·,-4,-22,·,
Cc1cc(N(C)/N=C/c2ccccc2)nc(-c2ccccc2O)n1,1,1,-6,37,-3,-45,·,i,
COc1ccccc1N1CCN(C2CCC(C)CC2)CC1 (stereo not given),-1,3,-5,-8,-4,-9,-16,i,
CCCCc1nnc(NC(=O)CS(=O)(=O)Cc2ccccc2)s1,4,2,5,·,1,-90,-18,i,
COc1ccc(NC(=O)c2nnn(Cc3ccc(SC)cc3)c2N)c(OC)c1,-2,0,-2,-8,10,15,4,i,
COC(=O)C(C(=O)OC)=C(/C=C/N(C)C)N(C)C,1,-2,-4,-9,-3,-5,-13,i,
Cc1ccc(C(=O)/C=C2\NCCNC2=O)cc1,6,4,1,-21,-2,-126,-32,i,
Clc1ccccc1Sc1ccc(-c2ccccn2)s1,-2,2,4,-1,3,3,-4,i,
O=C(N/C(=C/c1ccccc1)C(=O)N1CCOCC1)c1ccc([N+](=O)[O-])cc1,0,1,1,0,-6,6,-16,i,
COc1ccccc1NC(=O)C1CCCN(c2ncnc3c2nc2n3CCCCC2)C1 (stereo not given),3,-6,3,12,-6,5,4,i,
CCN1C(=O)CC(NCc2ccc(S(N)(=O)=O)cc2)C1=O (stereo not given),3,6,6,8,2,13,-15,i,
OCCC1CN(Cc2cccn2-c2cccnc2)CCN1Cc1ccc(F)cc1 (stereo not given),-1,3,11,-21,20,0,-3,i,
CN(C)CCCC1(O)c2ccccc2CCc2ccccc21,-11,-2,12,-16,0,-9,·,i,
COc1ccc(-c2csc(N(CCc3ccc(OC)c(OC)c3)C(=O)COc3ccccc3)n2)cc1,5,-1,7,-10,-7,?,-8,i,
CN(C)CCNC(=O)Cn1ccc2cc(S(=O)(=O)N3CCCCC3)ccc21,2,1,1,-14,1,1,-15,i,
CC(Oc1ccc(C(C)(C)C)cc1)c1ccnc2nc(/N=C/N(C)C)nn12 (stereo not given),8,0,6,-11,3,-20,1,i,
CC(C)C(c1nnnn1Cc1ccco1)N1CCC(C(N)=O)CC1 (stereo not given),-7,-1,15,9,52,·,-12,i,eIF4H inh retest=-8;PABP polyA inh retest=3
Cc1c(NC(=O)Oc2ccccc2)sc(=S)n1C,6,0,4,·,-3,11,-17,i,
Cc1onc(-c2ccccc2Cl)c1C(=O)NCc1ccc(F)cc1,-6,3,-1,6,-1,11,1,i,
COc1ccc(C)cc1NC(=O)CO/N=C(\N)CC(=O)Nc1ccccc1OC,-7,-7,·,2,·,·,-9,·,
CCCCNC(=O)C1(C)CCN1Cc1ccc(C(=O)OCC)cc1 (stereo not given),-3,0,·,·,·,6,2,·,
COc1cc2c(cc1OC)C1(Nc3c-2c(Cc2ccccc2)nn3-c2ccccc2)C(=O)Nc2ccccc21 (stereo not given),-14,-9,3,·,12,·,-11,i,
CCCCN(CCO)c1ncnc2sc(-c3ccccc3)cc12,1,-15,-3,33,-8,-13,-4,i,
CCOC(=O)c1cc(-c2ccc(F)cc2)n(CCC(=O)NC2CCN(Cc3ccccc3)CC2)c1C,0,-5,11,10,-1,-1,1,i,
CCOc1ccc(C2c3[nH]c4ccccc4c3C[C@H]3C(=O)N(C4CCN(Cc5ccccc5)CC4)CC(=O)N23)cc1OC (stereo not given in full),1,-9,-16,-7,0,-3,5,i,
COCC1CCCCN1C(=O)c1cccc(OC2CCN(C(=O)C3CC3)CC2)c1 (stereo not given),0,2,-15,0,-2,-5,-19,·,
O=C(NCc1ccc2c(c1)OCO2)c1cccc(F)c1,4,2,-10,-8,-2,·,-21,i,

# Copied from above, two compounds:
SMILES,MT1-MMP act inh,MT1-MMP act inh RFP,PABP polyA inh,CSC inhib,eIF4H inh,HIV Env fusion,Yeast UUG start,Rce1 inh,others
COc1cc2c(cc1OC)C1(Nc3c-2c(Cc2ccccc2)nn3-c2ccccc2)C(=O)Nc2ccccc21 (stereo not given),-14,-9,3,·,12,·,-11,i,
CCCCN(CCO)c1ncnc2sc(-c3ccccc3)cc12,1,-15,-3,33,-8,-13,-4,i,

# (cont.)
SMILES,MT1-MMP act inh,MT1-MMP act inh RFP,PABP polyA inh,CSC inhib,eIF4H inh,HIV Env fusion,Yeast UUG start,Rce1 inh,others
Cc1c(C)c2ccc(OC(C)C(=O)NCCc3c[nH]c4ccccc34)cc2oc1=O (stereo not given),7,-3,10,2,0,·,13,i,
O=C(Cn1c(SCC(=O)N2CCCc3ccccc32)nc2ccccc21)N1CCCC1,-1,-1,0,21,-2,·,·,i,
CC(CN1CCOCC1)OC(=O)CCc1ccccc1 (stereo not given),1,1,10,16,-9,21,·,i,
CCc1c(C)nc(SCC(=O)NNC(=O)Cc2ccc(OC)cc2)[nH]c1=O,2,0,0,6,-3,-12,-19,i,
O=C(c1cc2c(ccc3ccccc32)oc1=O)N1CCCC1,-1,3,6,0,1,-103,-18,i,
O=C(COC(=O)CCc1nc2ccccc2c(=O)[nH]1)NCc1ccc(F)cc1,0,3,-6,7,-3,-18,-19,i,
CC(=O)c1cccc(CN2CCN(Cc3ccc(F)cc3)C(CCO)C2)c1 (stereo not given),·,·,10,-8,-6,6,·,i,
COc1ccc(CC(=O)N2CCN=C2SCc2cccc([N+](=O)[O-])c2)cc1,5,0,-13,3,-1,7,12,i,
Cn1cc(Cl)c(C(=O)OCC(=O)Nc2cccc(Cl)c2)n1,0,2,10,·,-4,2,-12,i,
Cc1ccc(C)c(NC(=O)c2ccc3nccnc3c2)c1,-4,-3,9,-6,2,7,-42,i,
COc1ccc(Nc2cc(C)nc3ccc(OC)cc23)cc1,4,-4,-9,12,-3,1,-8,i,
COc1cc(OC)c2c(-c3ccccc3)cc(=O)oc2c1,1,1,2,-6,4,·,-3,i,

# Entries shown so far with fluorine (nine):
SMILES,MT1-MMP act inh,MT1-MMP act inh RFP,PABP polyA inh,CSC inhib,eIF4H inh,HIV Env fusion,Yeast UUG start,Rce1 inh,others
O=C(c1cc(S(=O)(=O)N2CCCCC2)ccc1F)N1CCCCC1,-5,-1,-2,0,1,·,-13,i,
Cc1ccc(N(Cc2ccccc2F)S(C)(=O)=O)c(C)c1,-10,-3,10,-18,-6,13,·,i,
O=C(NC(=S)Nc1ccc(Br)cc1F)C1CCCCC1,5,5,·,·,·,-4,-22,·,
OCCC1CN(Cc2cccn2-c2cccnc2)CCN1Cc1ccc(F)cc1 (stereo not given),-1,3,11,-21,20,0,-3,i,
Cc1onc(-c2ccccc2Cl)c1C(=O)NCc1ccc(F)cc1,-6,3,-1,6,-1,11,1,i,
CCOC(=O)c1cc(-c2ccc(F)cc2)n(CCC(=O)NC2CCN(Cc3ccccc3)CC2)c1C,0,-5,11,10,-1,-1,1,i,
O=C(NCc1ccc2c(c1)OCO2)c1cccc(F)c1,4,2,-10,-8,-2,·,-21,i,
O=C(COC(=O)CCc1nc2ccccc2c(=O)[nH]1)NCc1ccc(F)cc1,0,3,-6,7,-3,-18,-19,i,
CC(=O)c1cccc(CN2CCN(Cc3ccc(F)cc3)C(CCO)C2)c1 (stereo not given),·,·,10,-8,-6,6,·,i,
